# Bioassay records deposited in PubChem by several laboratories.
# KCNQ1 inh – blocks the human KCNQ1 potassium channel | 310,000 tested, 1.3% active | B-score at 10 µM | CHO-K1 KCNQ1, FluxOR thallium flux fluorescence; active compounds read high | P51787;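 active means compounds whose thallium flux B-score, printed positive for inhibition, exceeds three library SD while starting fluorescence stays within three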;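 further: channel opened by potassium depolarization with thallium stimulus after 20 min compound exposure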
# KCNK9 inh – human KCNK9 channel inhibition; B-score at 10 µM; AID 488922; 310,000 tested, 1.2% active; Q9NPC2; HEK293 KCNK9, FluxOR thallium flux fluorescence; active compounds read low;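 active means ratio B-score over 3 SD below the library mean, with starting fluorescence within 5 SD of its mean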;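 further: negative B-score means less thallium flux so channel inhibition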
# RGS4 block – human RGS4 inhibition. HEK293 M3R/RGS4 inducible, Fluo-4 calcium flux; active compounds read high; triggered by carbachol at its EC20. B-score at 10 µM. 310,000 tested, 0.45% active. AID 463165;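 active means B-score, a plate-corrected calcium signal, over three deviations above library mean, with baseline fluorescence within five deviations of library mean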;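 further: RGS4 expression induced by doxycycline in cells with stable M3 receptor; B-score is computed from the integrated fluorescence ratio over baseline after carbachol; higher B-score means a larger calcium signal and so more RGS4 inhibition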
# PolyA inhibitor – blocks polyadenylation in yeast reporter cells; S. cerevisiae SKY197-pL101 polyadenylation reporter, beta-gal luminescence; efflux-impaired pdr1/pdr3 knockout yeast; score 100 = 6 SD above DMSO; calls only at 12 µM; 300,000 tested, 0.02% active;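 active means lowest replicate activity score at least 50, where 100 means six control SD above control mean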;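 further: yeast exposed to compound for 9 h at 30 °C; higher score means more reporter readthrough which indicates perturbed polyadenylation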
# GSK3 alpha inh – blocks human GSK-3 alpha kinase. inhibition, % at 10 µM. P49840. ADP-Glo luminescence, 60 min. 320,000 tested, 0.1% active;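 in the data active means inhibition above about 50%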;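 further: GST-tagged GSK-3 alpha with peptide substrate and 25 µM ATP; 0% = DMSO neutral wells and 100% = GW8510 positive control wells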
# GSK3B inh – inhibitors of human GSK3beta kinase. 300,000 tested, 0.038% active. P49841. GST-GSK3beta kinase, ADP-Glo luminescence, 60 min; active compounds read low. activity score (negative = inhibition), % at 10 µM;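 active means more than half of replicate wells score below -50%, meaning over 50% inhibition versus plate controls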;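 further: 0% = median DMSO wells and -100% = median GW8510 positive control wells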
#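 Test system – GST-tagged human GSK3beta kinase, cell-free · Incubation – 60 min enzyme reaction, room temperature · Signal – ADP-Glo luminescence · Also added – peptide substrate and ATP at 25 µM · Controls – DMSO neutral wells and GW8510 at 20 µM as positive · Buffer or medium – Tris/MgCl2 kinase buffer · Measure – Luminescence-derived activity versus plate DMSO and GW8510 wells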
# KCNK3 block – human KCNK3 channel inhibition, primary screen; AID 602410; B-score at 10 µM; 340,000 tested, 0.84% active; CHO-KCNK3 thallium flux, FluxOR fluorescence; active compounds read low; O14649;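 active means B-score under library mean minus 4 SD, starting fluorescence ratio at most library mean plus 5 SD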;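 further: more negative B-score means stronger inhibition of thallium flux through KCNK3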
# RGS4 pot – RGS4 potentiation or activation; AID 463111; HEK293 M3R/inducible RGS4, carbachol calcium flux Fluo4; active compounds read low; B-score at 10 µM; 310,000 tested, 0.92% active;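 active means B-score of the integrated calcium signal more than 4 SD below the library mean, with starting fluorescence not abnormally high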;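 further: negative B-score means reduced calcium response which marks RGS4 activation or potentiation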
#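 Test system: HEK293 cells with stable M3R and inducible RGS4; also added: carbachol at ECmax as muscarinic agonist stimulus; schedule: dye loading 30 min 37 °C, buffer rest 30 min RT; technique: kinetic calcium fluorescence imaging with Fluo4-AM dye, 2 µM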
# hERG rescue – shields human hERG channel from block by proarrhythmic agents; Q12809; CHO-hERG, FluxOR thallium flux, dofetilide IC70 present; activation (rescue from dofetilide block), less the hit threshold, % at 10 µM; 310,000 tested, 0.51% active; AID 1511;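 active means activation above the mean of controls blocked by dofetilide plus 5 SD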;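 further: thallium influx through hERG after potassium depolarization seen as dye fluorescence rise; in these data hits start at about 4.7%; inactives centre near -7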
# Target sequence (Q12809 whole entry, looked up): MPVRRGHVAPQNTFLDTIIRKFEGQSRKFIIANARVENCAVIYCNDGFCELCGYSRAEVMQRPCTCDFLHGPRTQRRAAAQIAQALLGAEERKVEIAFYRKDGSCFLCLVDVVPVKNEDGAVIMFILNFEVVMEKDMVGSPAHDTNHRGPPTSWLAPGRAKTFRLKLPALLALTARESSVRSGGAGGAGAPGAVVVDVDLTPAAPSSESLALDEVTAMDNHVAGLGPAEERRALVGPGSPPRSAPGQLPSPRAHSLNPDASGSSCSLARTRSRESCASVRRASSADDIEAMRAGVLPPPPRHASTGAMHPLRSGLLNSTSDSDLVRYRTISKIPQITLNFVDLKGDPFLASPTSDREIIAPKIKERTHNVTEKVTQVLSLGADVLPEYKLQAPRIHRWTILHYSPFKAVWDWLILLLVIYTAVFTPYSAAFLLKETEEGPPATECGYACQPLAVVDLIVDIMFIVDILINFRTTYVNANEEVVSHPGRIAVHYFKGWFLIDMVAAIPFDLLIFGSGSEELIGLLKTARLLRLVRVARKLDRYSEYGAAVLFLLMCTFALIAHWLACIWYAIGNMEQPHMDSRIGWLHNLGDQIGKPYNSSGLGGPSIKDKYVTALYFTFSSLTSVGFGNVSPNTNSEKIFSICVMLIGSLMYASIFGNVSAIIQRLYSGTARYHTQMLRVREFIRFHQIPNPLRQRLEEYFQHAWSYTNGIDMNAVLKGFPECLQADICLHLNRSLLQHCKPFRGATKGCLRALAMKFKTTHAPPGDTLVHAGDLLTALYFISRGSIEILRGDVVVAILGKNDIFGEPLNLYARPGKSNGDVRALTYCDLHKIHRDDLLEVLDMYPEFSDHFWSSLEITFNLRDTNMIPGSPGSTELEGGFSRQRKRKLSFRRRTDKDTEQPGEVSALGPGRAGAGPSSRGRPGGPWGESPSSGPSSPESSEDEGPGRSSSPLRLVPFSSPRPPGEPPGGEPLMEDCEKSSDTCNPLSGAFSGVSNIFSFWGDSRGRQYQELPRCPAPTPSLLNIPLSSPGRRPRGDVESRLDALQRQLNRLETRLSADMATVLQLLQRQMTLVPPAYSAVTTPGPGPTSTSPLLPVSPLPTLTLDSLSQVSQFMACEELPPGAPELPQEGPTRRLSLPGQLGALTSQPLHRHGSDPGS
# KCNQ1 pot – potentiates or activates the human KCNQ1 potassium channel | CHO-K1 KCNQ1, thallium flux FluxOR fluorescence; active compounds read high | B-score at 10 µM | 310,000 tested, 0.35% active | AID 2648;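 active means fluorescence ratio B-score, a plate-corrected score, at least three library SD, with initial intensity B-score within 5 SD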
#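 Assay system: stable KCNQ1 CHO-K1 line; medium: assay buffer, equal DMSO in all wells; timing: 90 min dye loading and 20 min compound exposure, both at room temperature; technique: kinetic FluxOR thallium fluorescence, 10-s 1-Hz baseline, 110-s post-stimulus read; read-out basis: B score of baseline-normalized fluorescence ratio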
# The depositor's hits bear a star; i = inactive; / = not tested or not shown.
SMILES,KCNQ1 inh,KCNK9 inh,RGS4 block,PolyA inhibitor,GSK3 alpha inh,GSK3B inh,KCNK3 block,RGS4 pot,hERG rescue,KCNQ1 pot
CN(C(=O)/C=C/c1ccc2c(c1)OCO2)c1ccccc1,i,i,i,i,43,-21,i,i,-14,i
CCOC(=O)c1sc2c(c1C)c(=O)n(Cc1ccccc1)c(=O)n2CCN(C)C,i,i,i,i,0,-2,i,i,-4,i
COc1ccc(F)cc1CSc1nnnn1-c1ccc(O)cc1,i,i,i,i,5,1,i,i,-7,i
CCN1/C(=C/C(=O)c2ccco2)Sc2ccccc21,i,i,i,i,4,1,i,i,-6,i
COc1cc(C)c(S(=O)(=O)NCc2ccc3c(c2)OCO3)cc1C,i,i,i,i,0,-1,i,i,-4,i
COc1cccc(-c2c(C(=O)N/N=C/c3cccs3)nnn2-c2nonc2N)c1,i,i,i,i,/,2,i,i,-4,i
CSCC[C@@H](C(=O)O)N1Cc2ccccc2C1=O,i,i,i,i,-5,2,i,i,-9,i
O=C(Cc1ccc(Cl)c(Cl)c1)Nc1cccc2ncccc12,i,i,i,i,-2,-2,i,i,-11,i
COc1ccc(CCNC(=O)Cn2nnc(-c3ccc(N4CCOCC4)cc3)n2)cc1OC,i,i,i,i,-2,0,i,i,-1,i
O=S(=O)(NCc1ccc2c(c1)OCO2)c1ccc(Cl)s1,i,i,i,i,-2,0,i,i,-6,i
CCOC(=O)N1CCC(NC(=O)c2ccc3c(c2)N=C(C)c2c(C)ccc(C)c2S3)CC1,i,i,i,i,0,-2,i,i,-4,i
CSc1ccc(/C=C(\C(=O)O)c2ccc(S(=O)(=O)N3CCCC3)s2)cc1,/,/,/,/,5,/,i,/,/,/
N=c1sc2ccccc2n1-c1ccccc1,i,i,i,i,-3,-1,i,i,-10,i
O=c1c(Cl)c(O)c2cccc3c4ccccc4n1c23,i,i,i,i,-4,0,i,i,-6,i
O=C(NCc1cccnc1)C1CC(c2ccc(F)cc2)=NO1 (centres undefined),i,i,i,i,2,-1,i,i,-9,i
COC(=O)C1C(O)=C(C=Nc2ccccc2)C(=O)CC1(C)C (centres undefined),i,i,i,i,-1,0,i,i,2,i
COC(=O)c1cc2ccsc2n1Cc1ccccc1F,i,i,i,i,-11,-2,i,i,-7,i
O=[N+]([O-])c1ccc2c(c1)-c1ccccc1C2=NO,/,/,/,/,/,/,i,/,/,/
Cc1nc2ccccc2c2c1CC(C(C)(Cl)Br)O2 (centres undefined),6*,i,i,i,-2,-3,-9.6*,i,-26,i
O=C(/C=C/c1ccc(Cl)cc1)NCc1ccco1,i,i,i,i,2,2,i,i,-3,i
CCOC(=O)CSc1nnc(NCC(=O)OC(C)C)c(=O)[nH]1,i,i,i,i,12,3,i,i,-9,i
Fc1cccc(Nc2ncnc3[nH]ncc23)c1,i,i,i,i,53*,-27,i,i,-9,i
O=C(Nc1c(C(=O)O)[nH]c2ccc(F)cc12)c1cccc(C(F)(F)F)c1,i,i,i,i,7,3,i,i,-7,i
COc1ccc(C(=O)Nc2ncc3c(n2)-c2ccccc2CC3)cc1,i,i,i,i,-2,-2,i,i,-21,i
COc1ccc(C2=NOC(Cn3nc(C(=O)O)cc3-c3ccccc3)C2)cc1 (centres undefined),i,i,i,i,-5,2,i,i,-6,i

# Further results.
SMILES,KCNQ1 inh,KCNK9 inh,RGS4 block,PolyA inhibitor,GSK3 alpha inh,GSK3B inh,KCNK3 block,RGS4 pot,hERG rescue,KCNQ1 pot
COc1ccccc1CNC(=O)c1cc(-c2ccccc2)nn1CC1CC(c2cccnc2)=NO1 (centres undefined),i,i,i,i,-3,-2,i,i,-15,i
N#CC(CCc1ccc([N+](=O)[O-])cc1)(CCc1ccc([N+](=O)[O-])cc1)C(N)=O,/,/,/,/,/,/,i,/,/,/
Cn1c(-c2ccc3c(c2)OCO3)cnc1NC(=O)CCC(=O)NCCc1ccccc1,i,i,i,i,/,1,i,i,-20,i
Cc1ccc([N+](=O)[O-])cc1-c1ccc2cccc(C)c2n1,i,i,i,i,-3,-4,i,i,-6,i
O=C(N/N=C1\CCCc2ccccc21)C(O)c1ccccc1 (centres undefined),i,i,i,i,4,-1,i,i,-9,i
Nn1cnnc1N/N=C/c1cccc(Cl)c1Cl,i,i,i,i,4,-4,i,i,-3,i
COc1ccc(-c2ccc(=O)n(Cc3cccc(Cl)c3)n2)cc1,i,i,i,i,-1,-2,i,i,-12,i
CCn1c(-c2ccc3ncccc3c2)n[nH]c1=S,i,i,i,i,12,5,i,i,-18,i
COc1cc(/C=C(\C#N)C(=O)NCC2CCCO2)ccc1O (centres undefined),i,i,i,i,4,2,i,i,-10,i
O=C(NCc1ccc(Cl)cc1)c1ccc(COCC(F)(F)F)o1,i,i,i,i,-3,2,i,i,-3,i
CCOC(=O)C1CCCN(C(=O)c2csc(-c3ccc4c(c3)CCO4)n2)C1 (centres undefined),i,i,i,i,1,1,i,i,-8,i
C=CCn1c(COc2ccccc2)nnc1SCC(=O)Nc1ccc(S(N)(=O)=O)cc1,i,i,i,i,0,2,i,i,0,i
O=[N+]([O-])c1ccc2c(c1)Nc1nc3ccccc3nc1N2,i,i,i,i,-1,1,i,i,1,i
COc1ccc2cc3cc(C(=O)NCCCN4CCc5ccccc5C4)sc3nc2c1,i,i,i,i,/,2,i,i,-17,i
O=C(Nc1cccc2ncccc12)c1ccccc1F,i,i,i,i,14,1,i,i,-8,i
O=C1NC(=Nc2ccccc2Cl)S/C1=C\c1cccc([N+](=O)[O-])c1O,6*,i,i,i,20,2,i,i,-13,i
N#CCCN(CCC#N)C(=O)c1ccc2c(c1)OCO2,i,i,i,i,-2,2,i,i,-11,i
CC(=O)Nc1coc2ccc(Br)cc12,i,i,i,i,1,-1,i,i,-10,i
Cc1noc(C)c1S(=O)(=O)Nc1cccc(C(F)(F)F)c1,6*,i,i,/,0,-2,i,i,-8,i
c1ccc2c(NCC3CCCO3)nc(-c3ccncc3)nc2c1 (centres undefined),i,i,i,i,5,-4,i,i,-5,i
COc1ccc(C(CNc2ncnc3sccc23)N(C)C)cc1OC (centres undefined),i,i,i,i,-1,0,i,i,-7,i
O=C1NC(=O)/C(=C/c2cccc3ccccc23)S1,6*,i,i,i,8,5,i,i,-4,i
O=C(C(c1ccccc1)N1CCOCC1)N1CCOCC1 (centres undefined),i,i,i,i,-5,4,i,i,-7,i
CCOC(=O)N1CCN(CC(=O)Nc2nc3ccc(OC)cc3s2)CC1,i,i,i,i,5,-3,i,i,-3,i
CC(C)NC(=O)CC(=O)NN=C1CCCCC1,i,i,i,i,0,1,i,i,-11,i

# Compounds from the list above with a CF3 group, in the order listed:
SMILES,KCNQ1 inh,KCNK9 inh,RGS4 block,PolyA inhibitor,GSK3 alpha inh,GSK3B inh,KCNK3 block,RGS4 pot,hERG rescue,KCNQ1 pot
O=C(Nc1c(C(=O)O)[nH]c2ccc(F)cc12)c1cccc(C(F)(F)F)c1,i,i,i,i,7,3,i,i,-7,i
O=C(NCc1ccc(Cl)cc1)c1ccc(COCC(F)(F)F)o1,i,i,i,i,-3,2,i,i,-3,i
Cc1noc(C)c1S(=O)(=O)Nc1cccc(C(F)(F)F)c1,6*,i,i,/,0,-2,i,i,-8,i

# The list continues:
SMILES,KCNQ1 inh,KCNK9 inh,RGS4 block,PolyA inhibitor,GSK3 alpha inh,GSK3B inh,KCNK3 block,RGS4 pot,hERG rescue,KCNQ1 pot
c1nc(N2CCC3(CC2)OCCO3)c2c3c(sc2n1)CCCC3,i,i,i,i,9,-7,i,i,-8,i
C/C(CC(=O)Nc1c(C)cc(C)cc1C)=N\NC(=O)OC(C)(C)C,i,i,i,i,-1,23,i,i,-6,i
COc1cc(C(=O)NCc2cccc3ccccc23)ccc1OCc1ccccc1,i,i,i,i,3,-4,i,i,-10,i
Cc1ccccc1-c1cc(C(=O)O)n(CC2CC(c3cccnc3)=NO2)n1 (centres undefined),/,/,/,/,-3,/,i,/,/,/
CC(C#CCN1CCCCC1)OCCOCc1ccccc1 (centres undefined),i,i,i,i,-1,-1,i,i,-6,i
O=[N+]([O-])c1cc(CN2CCN(c3cccc(C(F)(F)F)c3)CC2)c2cccnc2c1O,i,i,i,i,0,1,i,i,-3,i
CC(C(=O)N1CCOCC1)N1C(=O)c2ccccc2C1=O (centres undefined),i,i,i,i,-3,1,i,i,-9,i
COc1cc(NC(=O)c2ccc(Br)o2)c(C(=O)O)cc1OC,i,i,i,i,-2,5,i,i,-2,i
Cc1cc(=O)c2ccc3ccccc3c2[nH]1,i,i,i,i,0,1,i,i,-8,i
Cc1ccc(-c2nc(CN(C)C3CCOC3)c(C)o2)s1 (centres undefined),i,i,i,i,-1,0,i,i,-6,i
Cc1cc(-c2csc(NC(=O)c3ccc(C#N)cc3)n2)c(C)n1Cc1ccco1,i,i,i,i,-3,-4,i,i,-5,i
CC(C)Sc1nc2sc3c(c2c2nnc(SCC(=O)NCc4ccco4)n12)CCCC3,i,i,i,i,-1,0,i,i,-5,i
CCCc1nc(NCc2ccccn2)c2nnn(Cc3ccccc3F)c2n1,i,i,i,i,-2,1,i,i,-3,i
N#Cc1ccc(NC(=O)C2CC(c3ccc(F)cc3)=NO2)cc1 (centres undefined),i,i,i,i,0,1,i,i,-7,i
CCOc1ccc2nc(NC(=O)C3CCN(c4cnccn4)CC3)sc2c1,i,i,i,i,-2,-1,i,i,-14,i
Cc1ccc(/C=N/n2c(C)n[nH]c2=S)o1,i,i,i,i,6,-2,i,i,-9,i
CC(=O)Nc1ccc(C=NNC(=O)c2ccc(NS(=O)(=O)c3cccs3)cc2)cc1,/,/,/,/,-2,/,i,/,/,/
Cc1ccc(NC(=O)C(C)Sc2nnc(C)n2CC2CCCO2)cc1 (centres undefined),i,i,4.7*,i,/,-2,i,i,-3,i
COc1ccc2cc(C#N)c(NC(C)C)nc2c1,i,i,i,i,0,-4,i,i,-10,i
CS(=O)(=O)c1ccc2nc(NC(=O)C3CC(=O)N(c4ccccc4)C3)sc2c1 (centres undefined),i,i,i,i,0,-1,i,i,-2,i
CCN(CC)c1nc2cc(OC)ccc2cc1C#N,i,i,i,i,17,3,i,i,2,i
Cc1c(C(=O)Nc2ccc(Cl)cn2)oc2ccccc12,i,i,i,/,4,1,i,i,-6,i
O=C1Nc2c(c(=O)[nH]c(=O)n2-c2ccc(F)cc2)C1(NS(=O)(=O)c1ccccc1)C(F)(F)F (centres undefined),i,i,i,i,-2,-2,i,i,-7,i
Cc1cccc(-n2c(=O)[nH]c3c(C(N)=O)nc(CC(C)C)nc32)c1,i,i,i,i,0,1,i,i,1,i

# The list is partial; count on the stated rates, not on these rows.
